Assay outcomes: PubChem, several laboratories
Mtb bLac sens = beta-lactam sensitization of Mtb H37Rv. M. tuberculosis H37Rv growth with meropenem, percent inhibition; hits of this screen are not shown here. actives 0.27% (n = 330,000). inhibition, % at 25 µM;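 active = about 74% or more and at least 40 points above the plate without the antibiotic, then above 30% in a dose series; inconclusive = first-round hits that could not be retested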;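 note: growth measured after seven days incubation then overnight dye step; 0% = bacteria only wells and 100% = bacteria with antibiotic; twin plates without the antibiotic show which effects depend on it; some results filed as inactive read as strong as hits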
RecA splice inh = Mtb RecA intein splicing inhibition | cell-free RecA intein splicing, fluorescence | inhibition, %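 (about 9 µM by stock and volumes)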 | actives 0.75% (n = 290,000) | AID 2221; in the data active = inhibition above about 30%; inconclusive = no clear call, values can overlap the other calls;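 note: 0% = vehicle wells and 100% = reference inhibitor control wells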
Target sequence (P9WHJ3 whole entry, looked up, canonical isoform): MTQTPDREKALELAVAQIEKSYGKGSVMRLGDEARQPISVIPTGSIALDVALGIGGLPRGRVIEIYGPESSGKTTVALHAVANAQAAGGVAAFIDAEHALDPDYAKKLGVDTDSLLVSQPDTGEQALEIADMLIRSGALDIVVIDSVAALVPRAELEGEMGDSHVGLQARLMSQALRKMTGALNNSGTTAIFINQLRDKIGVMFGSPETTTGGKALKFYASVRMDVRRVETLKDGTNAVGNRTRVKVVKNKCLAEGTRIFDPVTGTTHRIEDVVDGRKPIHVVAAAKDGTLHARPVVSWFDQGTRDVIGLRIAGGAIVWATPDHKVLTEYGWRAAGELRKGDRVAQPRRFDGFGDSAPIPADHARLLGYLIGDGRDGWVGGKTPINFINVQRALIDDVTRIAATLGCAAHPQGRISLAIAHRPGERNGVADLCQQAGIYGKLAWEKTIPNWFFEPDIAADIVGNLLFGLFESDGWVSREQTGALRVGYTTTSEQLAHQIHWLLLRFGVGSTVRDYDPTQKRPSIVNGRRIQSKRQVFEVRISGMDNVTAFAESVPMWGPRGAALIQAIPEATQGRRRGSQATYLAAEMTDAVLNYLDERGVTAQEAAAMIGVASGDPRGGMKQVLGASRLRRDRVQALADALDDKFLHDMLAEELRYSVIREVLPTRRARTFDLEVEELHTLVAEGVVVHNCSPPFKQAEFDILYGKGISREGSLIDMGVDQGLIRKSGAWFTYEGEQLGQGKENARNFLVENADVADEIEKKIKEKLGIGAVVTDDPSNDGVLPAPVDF
Mtb H37Rv = M. tuberculosis H37Rv growth inhibitors, H37Rv strain (AID 1626). M. tuberculosis H37Rv growth inhibition; higher % means a stronger effect. inhibition, % at 10 µM, or IC50 in µM where a hit was titrated. actives 0.95% (n = 220,000);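 active = confirmed in a dose series; inconclusive = inhibition above 80% but not taken into the dose series; inactive = below 80% or under 30% at every dose of the series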;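 note: bacteria incubated seven days before Alamar blue readout; 0% = bacteria only wells and 100% = bacteria with antibiotic wells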
Arbovirus inh = blocks arbovirus infection. actives 0.37% (n = 200,000). inhibition, % at 10 µM. arbovirus infection cell-based antiviral screen. AID 1251;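 active = inhibition from about 30%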;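 note: bluetongue infection of BSR cells; cell survival read as ATP light after 72 h; 0% = infected wells without compound and 100% = uninfected wells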
YopH inh = blocks Yersinia enterocolitica YopH tyrosine phosphatase; fluorescence Ex485/Em525; inhibition, %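 (about 10 µM by stock and volumes)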; actives 0.16% (n = 140,000); AID 898;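 active = inhibition of 50% or more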;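 note: controls were vehicle for no effect and minimum signal wells for full effect; inactives centre near -20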
Arbovirus inh repeat = recorded beside Arbovirus inh, whose call it bears; inhibition, %; measured here: 10K subset replicate screen; many hits read low in the repeat;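 first of two repeat runs on a subset; 0% = infected and 100% = uninfected wells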
* = called active by the depositor; ? = inconclusive; . = not tested or not shown.

SMILES	Mtb bLac sens	RecA splice inh	Mtb H37Rv	Arbovirus inh	YopH inh	others
O=C(CN1CCN(S(=O)(=O)c2ccc(Br)cc2)CC1)N/N=C/c1cccnc1	0	0.2	-2%	12	-28
CN(C(=O)c1ccc2c(c1)OCO2)C1(C(=O)NC2CCCC2)CCCCC1	-5	-1.2	3%	2	-27
COc1ccccc1N(CC(=O)NC1CCCC1)C(=O)c1csnn1	1	0.1	-11%	-4	-16
O=c1[nH]nc(-c2ccc(F)cc2)cc1Cc1cccs1	9	-0.4	8%	.	.
CCCC[C@@H]1CNCCN1CCc1cccc2ccccc12	-6	0.6	.	.	.
COc1cccc(CNC(=O)CCn2ccc3cc(S(=O)(=O)N4CCCC4)ccc32)c1	3	1.2	.	.	.
Cc1nc2nc(C)c(CCC(=O)Nc3ccc4c(c3)OCO4)c(C)n2n1	-6	-2.8	-3%	-2	-23
CCC(C)(C)NC(=O)C(c1ccc(C)cc1)N(Cc1cccnc1)C(=O)c1csnn1 (configuration not stated)	-2	-1.3	-12%	-4	-9
COC(=O)CCc1ccc(O)cc1	-9	0.0	.	.	.
Cc1ccc(C)c(S(=O)(=O)Nc2cc3c4c(c2)CC(=O)N4CCC3)c1	-1	10	.	.	.
COc1ccc(CNC2CCCCC2C)c(OC)c1 (configuration not stated)	-7	.	-6%	3	-7
Cc1ccc(C)c(OCCNc2ccc([N+](=O)[O-])cn2)c1	6	1.5	.	.	.

By substructure: the compounds so far containing an aryl methoxy group.
SMILES	Mtb bLac sens	RecA splice inh	Mtb H37Rv	Arbovirus inh	YopH inh	others
COc1ccccc1N(CC(=O)NC1CCCC1)C(=O)c1csnn1	1	0.1	-11%	-4	-16
COc1cccc(CNC(=O)CCn2ccc3cc(S(=O)(=O)N4CCCC4)ccc32)c1	3	1.2	.	.	.
COc1ccc(CNC2CCCCC2C)c(OC)c1 (configuration not stated)	-7	.	-6%	3	-7

Seven entries already listed, ordered by SMILES length, descending.
SMILES	Mtb bLac sens	RecA splice inh	Mtb H37Rv	Arbovirus inh	YopH inh	others
CCC(C)(C)NC(=O)C(c1ccc(C)cc1)N(Cc1cccnc1)C(=O)c1csnn1 (configuration not stated)	-2	-1.3	-12%	-4	-9
COc1cccc(CNC(=O)CCn2ccc3cc(S(=O)(=O)N4CCCC4)ccc32)c1	3	1.2	.	.	.
Cc1ccc(C)c(S(=O)(=O)Nc2cc3c4c(c2)CC(=O)N4CCC3)c1	-1	10	.	.	.
COc1ccccc1N(CC(=O)NC1CCCC1)C(=O)c1csnn1	1	0.1	-11%	-4	-16
O=c1[nH]nc(-c2ccc(F)cc2)cc1Cc1cccs1	9	-0.4	8%	.	.
COc1ccc(CNC2CCCCC2C)c(OC)c1 (configuration not stated)	-7	.	-6%	3	-7
COC(=O)CCc1ccc(O)cc1	-9	0.0	.	.	.

(further entries)
SMILES	Mtb bLac sens	RecA splice inh	Mtb H37Rv	Arbovirus inh	YopH inh	others
N#Cc1c(-c2cccc(F)c2)cc(-c2ccccc2)nc1Br	-4	-1.4	-5%	-5	-33
CC1CCN(C(=O)CSc2nnc(Cn3c(=O)sc4ccccc43)n2C)CC1	?	-1.0	8%	-1	-18	Arbovirus inh repeat=-3
COC(=O)c1ccc(OCC(O)CNC2CCCC2)cc1 (configuration not stated)	-2	-3.1	.	.	.
Cc1ccc(NS(=O)(=O)c2ccc(C(=O)NCCCN3CCOCC3)cc2)cc1	-4	2.2	.	.	.
Cc1ccc(S(=O)(=O)c2nc(NN(C)C)sc2Cl)cc1	6	-0.3	6%	12	.
Cc1cc(NC(=O)c2cc(-c3cccc(Cl)c3)on2)no1	3	2.9	8%	7	-44
Cc1nn(C)c(N)c1[N+](=O)[O-]	3	-0.9	-6%	.	.
COc1ccc(CC(=O)NNC(=O)c2nn(Cc3ccccc3)c(=O)c3ccccc23)cc1OC	-4	-0.6	4%	.	.
O=C(N/N=C/CCc1ccccc1)c1ccccc1	12	-0.5	5%	1	-29
Cc1ccc(S(=O)(=O)CCC(=O)Nc2ccc(S(=O)(=O)N(C)C)cc2)cc1	4	-2.1	-2%	20	.
Cc1noc(C)c1CSc1nnc(-c2ccncc2)n1-c1ccc(Cl)c(Cl)c1	-8	-0.1	-4%	2	-38
O=C1CCC2c3ccc4ccccc4c3CCN12 (configuration not stated)	-16	3.2	-10%	9	0
O=C(Nc1ccc(Cl)cc1)c1cc(-c2cccs2)on1	-11	0.0	.	.	.
Cc1cc2ccccc2n1CCNC(=O)COc1ccccc1	.	-3.0	13%	3	13	Arbovirus inh repeat=-8
CN1CCOc2cc(S(=O)(=O)NCc3ccc(S(N)(=O)=O)cc3)ccc21	-4	0.7	.	.	.
CCOC(=O)c1ccc(NC(=O)CSC2=NC(=O)C(CC)C(=O)N2)cc1 (configuration not stated)	97	0.0	24µM*	-6	-22
CCc1ccc(NC(=O)CSc2nc3ccccc3c(=O)n2CCCC(=O)N2CCCC2)cc1	7	-0.4	3%	-1	-18
NC(=O)c1ccc(N=Cc2c(O)ccc3ccccc23)cc1	4	-1.5	.	.	.
Cc1ccc(NS(=O)(=O)c2cccc(C(=O)NCC(c3ccco3)N3CCCCC3)c2)cc1 (configuration not stated)	-5	-2.1	.	.	.
O=C(CCC(=O)Nc1ccccc1Cl)NNC(=O)NC1CCCCC1	-8	-1.9	.	.	.
CC(=O)Nc1ccc(NC(=O)COC(=O)c2cnccn2)cc1	-1	.	0%	14	.
Cc1cccc(C2c3[nH]c4ccccc4c3CCN2Cc2cccn2-c2ncccn2)c1 (configuration not stated)	57	6.1	74%	-8	.
CSCc1ccc(C(=O)Nc2ccc(C(N)=O)cc2)cc1	-2	-2.9	-4%	1	.
S=c1[nH]nc(-c2ccccn2)n1/N=C/c1ccc(-c2ccccc2Cl)o1	0	5.4	-1%	5	.

By substructure: those above with fluorine (two)
SMILES	Mtb bLac sens	RecA splice inh	Mtb H37Rv	Arbovirus inh	YopH inh	others
O=c1[nH]nc(-c2ccc(F)cc2)cc1Cc1cccs1	9	-0.4	8%	.	.
N#Cc1c(-c2cccc(F)c2)cc(-c2ccccc2)nc1Br	-4	-1.4	-5%	-5	-33

The results go on.
SMILES	Mtb bLac sens	RecA splice inh	Mtb H37Rv	Arbovirus inh	YopH inh	others
CCc1noc(C)c1C(=O)N1CCCC(N2CCN(c3ccc(F)cc3)CC2)C1 (configuration not stated)	-5	-0.7	.	.	.
COc1ccc(-c2ccc(F)cc2)cc1[C@H]1[C@H]2C=CC[C@@H](C)[C@@H]2C(=O)N1Cc1ccccc1	0	4.6	15%	.	.
Cc1nc(NCc2ccco2)c2oc3ccccc3c2n1	3	3.7	.	2	-39
O=C(CSc1ccc2nnc(-c3ccccn3)n2n1)Nc1ccccc1	?	3.6	.	.	.
CCCCn1c2ccccc2c2nnc(SCC(=O)NC3=NN=C(c4ccccc4)CS3)nc21	-2	3.7	2%	-16	-18
COc1ccccc1NS(=O)(=O)c1ccc(NC(C)=O)cc1	3	2.1	-15%	6	-27
C=CCn1c(SCC(=O)NCc2ccc3c(c2)OCO3)nnc1C1COc2ccccc2O1 (configuration not stated)	-1	.	-4%	-9	-32
CCOC(=O)CSc1nnc(N)s1	-9	-2.4	0%	8	-53
Cc1nnc(SCC(=O)Nc2ccc3c(c2)OCO3)o1	-1	-1.3	-6%	2	-51	Arbovirus inh repeat=2
Cc1cc(C)c2[nH]c(C(=O)Nc3ccc4c(c3)OCO4)cc2c1	4	8.1	6%	.	.
Cc1ccccc1NC(=O)C1CCN(S(=O)(=O)c2cccc3nonc23)CC1	3	2.0	.	.	.
COc1ccccc1N1CCN(CCOc2c(OC)cccc2OC)CC1	2	1.7	-13%	7	-16
O=C1CCC(=O)N1OCCCCOc1ccccc1	-4	-2.6	2%	-1	8
Cc1ccc(C(=O)N/C(=C\c2cccs2)C(=O)NCC2CCCO2)cc1C (configuration not stated)	-1	4.3	0%	-3	-20
CC(C)Nc1nnc(SCC(=O)/C=C2\N(C)c3ccccc3C2(C)C)s1	-7	3.5	11%	14	-22
CSc1nc2nccc(-c3ccc(Cl)cc3)n2n1	-7	1.9	-6%	-2	-18
Cc1cc(NC(=O)CSCC(=O)N(C)Cc2cccc(Cl)c2)no1	-2	-5.3	.	.	.
CC(OC(=O)/C=C/c1cccc(C(F)(F)F)c1)C(=O)NC1CCCCC1C (configuration not stated)	3	-1.4	.	.	.
CCOC(=O)N1CCC(N2C(=O)c3ccccc3C2Nc2cc(Cl)c(OC)cc2OC)CC1 (configuration not stated)	-2	3.8	0%	-2	-17	Arbovirus inh repeat=-15
O=C(N=Nc1c(O)[nH]c2ccccc12)c1ccco1	0	-1.6	-3%	-10	.
Cc1cc(=O)[nH]c2c1cnn2Cc1ccccc1	7	17	-4%	3	-28
CC(=O)c1cccc(NC(=O)c2cc(C(C)C)on2)c1	3	0.1	10%	6	-42	Arbovirus inh repeat=-1
O=C(NC1CC1)c1cccc(Br)c1	1	5.9	-5%	3	-26
Cn1c(SCC(=O)Nc2ccc(N3CCOCC3)cc2)nnc1-c1ccccc1F	-11	-0.3	.	.	.
CCOC(=O)/C=C/C(=O)OCC(=O)N1CCN(C(=O)c2ccco2)CC1	-10	-1.9	.	.	.
CCCCC(=O)NNC(=S)NCc1ccccc1	-6	-1.3	-4%	8	.
CCOc1cc(C(=S)N2CCOCC2)ccc1OC(=O)c1cccc(C)c1	-2	6.0	.	.	.
CCOP(=O)(OCC)C(NC(=O)c1ccc(OC)cc1)C(Cl)(Cl)Cl (configuration not stated)	-3	-1.0	-3%	.	.
CCOc1ccccc1Oc1c(C)oc2c(CN3CCN(C)CC3)c(O)ccc2c1=O	-5	.	0%	1	-15
COc1ccc(C(=O)Nc2ccccc2C(=O)N(Cc2ccco2)C(C(N)=O)C(C)C)cc1 (configuration not stated)	71	-0.9	-4%	-21	-11
O=S(=O)(Nc1ncccn1)c1ccc(NC(=S)NCCc2ccc(Cl)cc2)cc1	0	3.4	-1%	7	.
CCCCC(NC(C)=O)c1nc2ccccc2n1CCC (configuration not stated)	-11	2.5	0%	-1	-28	Arbovirus inh repeat=-2
COc1cccc(NC(=O)Nc2nc(-c3ccc(OC)c(OC)c3)cs2)c1	94	0.1	.	.	.
COc1ccc(OC)c(NC(=O)Nc2cccc3ccccc23)c1	-5	-4.1	4%	7	4
CC(C)(O)c1nnn(-c2ccccc2)c1C(F)(F)F	-4	.	-4%	8	-40
CCC1CN(C(=O)N2CCC(C(=O)NCc3cccc(OC)c3OC)CC2)c2cc(C)ccc2O1 (configuration not stated)	-3	0.2	.	.	.
COc1ccc(N=c2oc3ccc(OC)cc3cc2-c2nc3ccccc3[nH]2)cc1	3	-6.0	-10%	-16	-2
O=S(=O)(Nc1cccc(-n2cnnn2)c1)c1cnc(Cl)c(Cl)c1	?	11	.	.	.
N#CNC(=Nc1ccccc1F)SCc1ccc(C(=O)O)cc1	2	8.5	0%	-1	.
CSc1nc(Cl)cc(Nc2ccccc2N)n1	-2	7.6	-2%	-16	.
O=[N+]([O-])c1ccccc1-c1ccc(C(=S)N2CCCC2)o1	2	3.5	0%	-13	.
Cc1ccc(OCc2nnc(N)s2)cc1	-2	0.4	-3%	2	.
Cc1cc(C)nc(NC(=O)c2c(-c3c(Cl)cccc3Cl)noc2C)n1	1	2.3	-2%	-3	-29
COc1cc2cc(C(N)=O)c(N)nc2cc1OC	-1	-259	.	6	-29
O=S(=O)(Cc1ccc(Cl)cc1)N1CCCC1	-1	-0.1	-5%	-4	-17
COc1ccc(C)cc1N(CC(=O)Nc1ccc2c(c1)OCCO2)S(C)(=O)=O	0	-1.7	5%	-2	.
O=c1oc(-c2cccs2)nc2c1cnn2-c1ccccc1	89	-0.2	6%	9	-26
Cc1cccc(NC(=O)CSc2n[nH]c(-c3cccnc3)n2)c1	9	1.0	.	.	.
COc1cc(/C=N/Nc2nc(C)cc(=O)[nH]2)ccc1O	6	-6.5	.	.	.
Cc1cccc2c(-c3ccccc3)cc(=O)[nH]c12	-2	-0.2	-7%	-8	-32
CCCCCOC(=O)CC(C(=O)OCCCCC)N1CCCCC1 (configuration not stated)	-3	6.5	0%	5	-8
CC1=CC(c2ccccc2)=Nc2ccc(C)cc2N1	-1	-0.6	2%	-1	-20
Clc1ccccc1-c1nnc(CNC2CC2)o1	6	-1.3	2%	1	.
Cc1cc(NCc2cccnc2)no1	-2	-3.9	-6%	.	.
Cc1nonc1NC(=O)c1oc2ccc(F)cc2c1C	3	-2.3	.	.	.
Cc1cccc(N2CCN(S(=O)(=O)c3ccc4c(c3)CC(C)N4C(=O)C3CC3)CC2)c1C (configuration not stated)	2	-3.2	.	.	.
Cc1ccc(Oc2ccc(C(=O)NC3CCSC3=O)cn2)cc1 (configuration not stated)	-5	-3.0	-3%	4	-21

A portion of the library; rates above refer to the full screens.
